# Compound activity: PubChem, Broad Institute
# Vaccinia inh = blocks a specific stage of Vaccinia orthopoxvirus infection | Vaccinia-infected cells, mCherry/Venus stage reporter fluorescence; stronger effect = lower value; some inactives read as strong as hits | activity change (mCherry), % (concentration not given with the values) | 89,000 tested, 0.01% active;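 active means mCherry past -33% and 40 or more points under the early reporter, replicates agreeing; inconclusive means past -33% without that gap or agreement; tested in A549 cells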;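 further: scaled between vehicle wells and reference inhibitor wells; 23 nL library stock went into each well; one replicate is shown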
# Vaccinia inh Venus = further read-out of Vaccinia inh, marked with its call; activity change (Venus), %; measured here: Venus reporter, other viral stage;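 negative = less Venus signal; first of two replicates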
# * hit, by the source's call; ? = inconclusive; / = no result given. Some of the compounds tested; rates above refer to the full screens.
SMILES,Vaccinia inh,Vaccinia inh Venus
C[C@H](CO)N1C[C@H](C)[C@H](CN(C)Cc2ccccc2)Oc2ccc(NC(=O)CCC(F)(F)F)cc2C1=O,16,14
COC(=O)C[C@H]1C=C[C@H](NS(=O)(=O)c2ccccc2F)[C@H](CO)O1,-8,-4
CC(C)c1cn(CC[C@H]2CC[C@H](NS(=O)(=O)Cc3ccccc3)[C@@H](CO)O2)nn1,-7,1
CN1CCN(C(=O)C[C@@H]2CC[C@H]3[C@@H](COC[C@H](O)CN3C(=O)C3CCOCC3)O2)CC1,14,21
O=S(=O)(c1ccc(F)cc1)N1C[C@H]2[C@@H](c3ccccc31)[C@H](CO)N2Cc1ccccc1Cl,-13,15
CC(C)NC(=O)N(C)C[C@H]1OCCCC[C@@H](C)Oc2ccc(NS(C)(=O)=O)cc2C(=O)N([C@H](C)CO)C[C@@H]1C,28,15
Cc1cc(C(=O)Nc2cccc3c2O[C@H](CN(C)S(=O)(=O)c2cccs2)[C@H](C)CN([C@@H](C)CO)C3=O)n(C)n1,-7,-6
COc1ccc(S(=O)(=O)Nc2ccc3c(c2)C(=O)N([C@@H](C)CO)C[C@H](C)[C@H](CN(C)C(=O)CCC(F)(F)F)OCCCC[C@H](C)O3)cc1,-20,-14
COC(=O)C[C@@H]1CC[C@@H]2[C@H](COc3ccc(NC(=O)Nc4cccc(C#N)c4)cc3C(=O)N2C)O1,21,19
C[C@H]1CCCCO[C@H](CN(C)Cc2ccc(Cl)c(Cl)c2)[C@@H](C)CN([C@@H](C)CO)C(=O)c2cc(NC(=O)Nc3cccc4ccccc34)ccc2O1,10,13
C[C@H](CO)N1C[C@H](C)[C@H](CN(C)C(=O)Nc2ccc(C(F)(F)F)cc2)Oc2cc(-c3ccncc3)ccc2S1(=O)=O,-19,-13
CO[C@H]1CC[C@@H]2CCN(C)C(=O)C[C@@H](c3ccccc3)CN(C)C(=O)c3cccc(C#N)c3OC[C@@H]1O2,8,4
Cc1ccccc1S(=O)(=O)N[C@@H]1CC[C@H](CCn2cc(Cc3ccccc3)nn2)O[C@@H]1CO,6,9
C[C@@H](O)C#Cc1cnc2c(c1)C(=O)N([C@@H](C)CO)C[C@H](C)[C@@H](CN(C)CC1CCCCC1)O2,28,19
O=C(N[C@@H]1CC[C@H](CCNC(=O)c2ccccc2F)O[C@@H]1CO)c1ccc2c(c1)OCO2,3,9
CNC[C@H]1Oc2c(NC(=O)c3ccncc3)cccc2C(=O)N([C@@H](C)CO)C[C@H]1C,20,1
CC=Cc1ccc2n(c1=O)C[C@H]1[C@H](CO)[C@@H](C(=O)NCC3CC3)N(CCC(F)(F)F)[C@@H]21 (mixture of isomers),6,-10
C[C@@H]1CN([C@@H](C)CO)C(=O)c2cc(NC(=O)Cc3ccccc3)ccc2O[C@@H]1CN(C)Cc1ccc(Oc2ccccc2)cc1,-21,-9
Cc1noc(C)c1S(=O)(=O)Nc1ccc2c(c1)C(=O)N([C@@H](C)CO)C[C@@H](C)[C@@H](CN(C)S(=O)(=O)c1cccs1)O2,-8,-10
CCNC(=O)[C@@H]1N[C@@H]2c3ccc(-c4cccc(C(=O)N(C)C)c4)c(=O)n3C[C@@H]2[C@H]1CO,-4,14
C[C@@H](O)C#Cc1cnc2c(c1)C(=O)N([C@@H](C)CO)C[C@H](C)[C@@H](CN(C)CC1CCCC1)O2,18,11
CO[C@H]1CN(C)C(=O)c2cc(NC(=O)C3CC3)ccc2OC[C@@H](C)N(CC2CC2)C[C@@H]1C,4,4
CN(C)C(=O)C[C@H]1C[C@@H]2c3cc(NC(=O)Nc4ccccc4F)ccc3O[C@@H]2[C@H](CO)O1,1,8
Cc1ccc(S(=O)(=O)N(C)C[C@H]2Oc3ccc(NS(=O)(=O)c4ccc(F)cc4)cc3CC(=O)N([C@H](C)CO)C[C@H]2C)cc1,-1,-4
O=C(C[C@@H]1CC[C@H]2[C@@H](COC[C@@H](O)CN2Cc2nccs2)O1)NCc1ccc(F)cc1,9,8

# 3 entries from above in a different format:
# Order of values: Vaccinia inh, Vaccinia inh Venus
CN(C)C(=O)C[C@H]1C[C@@H]2c3cc(NC(=O)Nc4ccccc4F)ccc3O[C@@H]2[C@H](CO)O1
    1, 8
C[C@@H](O)C#Cc1cnc2c(c1)C(=O)N([C@@H](C)CO)C[C@H](C)[C@@H](CN(C)CC1CCCC1)O2
    18, 11
O=C(C[C@@H]1CC[C@H]2[C@@H](COC[C@@H](O)CN2Cc2nccs2)O1)NCc1ccc(F)cc1
    9, 8

# Continued.
SMILES,Vaccinia inh,Vaccinia inh Venus
CCCNC(=O)N1CC2(CCN(C(=O)C3CC3)CC2)c2c([nH]c3cc(OC)ccc23)[C@@H]1CO,4,3
C[C@H]1CN([C@@H](C)CO)C(=O)c2cccc(NS(=O)(=O)c3cn(C)cn3)c2O[C@H]1CN(C)S(=O)(=O)c1ccccc1,11,4
C[C@H](CO)N1C[C@H](C)[C@H](CN(C)Cc2ccccc2)Oc2ccc(NC(=O)Nc3ccc(C(F)(F)F)cc3)cc2CC1=O,-32,-26
C[C@H](CO)N1C[C@H](C)[C@@H](CN(C)Cc2ccc(C(F)(F)F)cc2)Oc2ccc(NC(=O)c3ccncc3)cc2C1=O,-9,-15
COc1ccc(NC(=O)N(C)C[C@H]2Oc3c(NC(=O)c4nc5ccccc5s4)cccc3C(=O)N([C@H](C)CO)C[C@@H]2C)cc1,8,5
COc1ccc(NC(=O)Nc2ccc3c(c2)C(=O)N([C@@H](C)CO)C[C@H](C)[C@@H](CN(C)S(=O)(=O)c2ccc(Cl)cc2)O3)cc1,2,4
O=C(Nc1ccc(F)cc1)N1CCCCN2[C@H](C1)[C@@H](c1ccc(-c3ccncc3)cc1)[C@@H]2CO,-15,-25
N#Cc1cccc(-c2ccc(C3[C@H]4CNC[C@@H]3N4Cc3ccc(F)cc3)cc2)c1 (stereo partly drawn),?,-10
O=C(C[C@@H]1CC[C@@H](NC(=O)C2CCC2)[C@H](CO)O1)NCCCN1CCOCC1,-1,-1
Cc1noc(C)c1NC(=O)N(C)C[C@H]1Oc2c(NS(=O)(=O)c3ccccc3)cccc2C(=O)N([C@@H](C)CO)C[C@H]1C,18,14
CO[C@@H]1CN(C)C(=O)c2cc(NS(=O)(=O)Cc3ccccc3)ccc2OC[C@@H](C)NC[C@H]1C,11,14
O=C(N[C@@H]1CC[C@@H](CCn2cc(C3(O)CCCC3)nn2)O[C@@H]1CO)C1CCOCC1,7,0
C[C@@H]1CN([C@H](C)CO)C(=O)c2cc(NC(=O)C3CC3)ccc2O[C@H]1CN(C)S(=O)(=O)c1ccc(Cl)cc1,2,0
CN(C)CC(=O)N1[C@H](C#N)[C@H](c2ccc(-c3ccccc3F)cc2)[C@H]1CO,-13,-4
C[C@@H]1CN([C@H](C)CO)C(=O)Cc2cc(NC(=O)Nc3cccc4ccccc34)ccc2O[C@@H]1CN(C)Cc1ccc2c(c1)OCO2,-17,-16
C[C@@H]1CN([C@H](C)CO)C(=O)c2cc(NC(=O)NC3CCCCC3)ccc2O[C@@H](C)CCCCO[C@@H]1CN(C)Cc1ccc(C(=O)O)cc1,20,15
CO[C@@H]1CN(C)C(=O)c2ccc(NC(=O)c3cnccn3)cc2OC[C@H](C)N(C(=O)C2CC2)C[C@@H]1C,3,5
CC(C)CC#Cc1ccc2c(c1)O[C@@H](CN(C)C(=O)Cc1cccnc1)[C@H](C)CN([C@@H](C)CO)S2(=O)=O,?,/
CCNC(=O)C[C@H]1CC[C@@H]2[C@H](COC[C@H](O)CN2Cc2ccccc2F)O1,18,5
CO[C@H]1CN(C)C(=O)c2cc(NC(=O)C3CC3)ccc2OC[C@@H](C)N(C(=O)c2ccccc2)C[C@@H]1C,1,8
COc1ccc(-c2cnc3c(c2)C(=O)N([C@@H](C)CO)C[C@H](C)[C@@H](CN(C)C(=O)C2CCOCC2)O3)cc1,22,10
COc1ccc(CNC(=O)C[C@@H]2C[C@@H]3c4cc(NC(=O)CN(C)C)ccc4O[C@@H]3[C@@H](CO)O2)cc1,13,2
CN1CCN(C(=O)C[C@@H]2C[C@H]3c4cc(NC(=O)Nc5ccc(F)cc5)ccc4O[C@H]3[C@@H](CO)O2)CC1,1,-2
CCC(=O)N(C)C[C@H]1Oc2ncc(C#Cc3ccccc3OC)cc2C(=O)N([C@@H](C)CO)C[C@H]1C,-9,-18
O=C([C@@H]1[C@@H](CO)[C@@H]2Cn3c(cccc3=O)[C@@H]2N1CC1CC1)N1CCc2ccccc2C1,15,13
# Further structures.
SMILES,Vaccinia inh,Vaccinia inh Venus
CC(=O)N(C)C[C@H]1Oc2cc(-c3ccc(F)cc3)ccc2S(=O)(=O)N([C@@H](C)CO)C[C@@H]1C,-13,-13
Cc1noc(C)c1NC(=O)Nc1ccc2c(c1)C(=O)N([C@H](C)CO)C[C@H](C)[C@@H](CN(C)C(=O)Nc1cccc3ccccc13)O2,22,13
Cc1ccc(S(=O)(=O)Nc2ccc3c(c2)CC(=O)N([C@@H](C)CO)C[C@H](C)[C@H](CN(C)C(=O)Nc2ccc(F)cc2)O3)cc1,-4,-4
COc1cccc(S(=O)(=O)N(C)C[C@@H]2OCc3cnnn3CCCC(=O)N([C@H](C)CO)C[C@@H]2C)c1,1,1
CS(=O)(=O)Nc1ccc2c(c1)[C@@H]1C[C@@H](CC(=O)N3CCc4ccccc4C3)O[C@H](CO)[C@@H]1O2,4,4
C[C@H](CO)N1C[C@H](C)[C@@H](CN(C)C(=O)Cc2cccnc2)Oc2ncc(C#Cc3ccccc3F)cc2C1=O,-15,-22
CO[C@H]1CN(C)C(=O)c2cc(NC(C)=O)ccc2OC[C@@H](C)N(C(=O)c2ccc(F)cc2)C[C@H]1C,11,6
C[C@@H]1CN([C@H](C)CO)C(=O)c2cccc(NC(=O)c3ccc(-c4nccs4)cc3)c2O[C@@H]1CN(C)Cc1ccncc1,7,3
CCCNC(=O)N1CC2(CN(C(=O)C3CCOCC3)C2)c2c([nH]c3cc(OC)ccc23)[C@@H]1CO,14,-1
CO[C@H]1CN(C)C(=O)c2cc(NC(=O)C3CC3)ccc2OC[C@@H](C)N(C(=O)c2ccncc2)C[C@@H]1C,14,-1
C[C@@H]1CN([C@H](C)CO)C(=O)c2cccc(NC(=O)C3CC3)c2O[C@H]1CN(C)C,-7,-7
C[C@H](CO)N1C[C@H](C)[C@H](CN(C)Cc2ccccc2)Oc2ccc(NC(=O)Cn3cnnn3)cc2CC1=O,9,9
C[C@@H]1CN([C@H](C)CO)C(=O)c2cccc(NC(=O)C3CC3)c2O[C@H]1CN(C)C(=O)NC1CCCCC1,13,9
O=C(C[C@@H]1C=C[C@@H](NC(=O)c2ccc3c(c2)OCO3)[C@H](CO)O1)NCc1ccc(Oc2ccccc2)cc1,2,4
C[C@@H]1CN([C@@H](C)CO)C(=O)c2cc(NS(C)(=O)=O)ccc2O[C@@H](C)CCCCO[C@H]1CN(C)C(=O)Nc1ccc(F)cc1,10,1
C[C@@H]1CCCCO[C@H](CN(C)S(=O)(=O)c2cn(C)cn2)[C@@H](C)CN([C@H](C)CO)C(=O)c2cc(NS(=O)(=O)c3ccc(Cl)cc3)ccc2O1,11,11
Cc1ccc(S(=O)(=O)Nc2ccc3c(c2)C(=O)N([C@@H](C)CO)C[C@H](C)[C@@H](CN(C)C(=O)C2CCCCC2)OCCCC[C@@H](C)O3)cc1,?,/
C[C@H]1CN([C@@H](C)CO)C(=O)Cc2cc(NC(=O)Nc3cccc4ccccc34)ccc2O[C@H]1CN(C)Cc1ccc(Cl)c(Cl)c1,-16,-18
COc1ccc(S(=O)(=O)N(C)C[C@H]2Oc3ccc(NC(=O)C4CC4)cc3C(=O)N([C@@H](C)CO)C[C@H]2C)cc1,-9,-4
CO[C@@H]1CN(C)C(=O)c2ccc(NC(=O)C3CCCC3)cc2OC[C@@H](C)N(S(=O)(=O)c2ccc(Cl)cc2)C[C@H]1C,-33,-25
Cc1noc(C)c1NC(=O)Nc1ccc2c(c1)CC(=O)N([C@@H](C)CO)C[C@@H](C)[C@@H](CN(C)S(=O)(=O)c1ccc(Cl)cc1)O2,18,8
CN1c2ccc(-c3cccc(F)c3)cc2[C@@H]2[C@@H](CCN2C(=O)c2cccc(F)c2)[C@@H]1CO,?,/
COCC#Cc1ccc([C@@H]2[C@H](CO)N3C(=O)CN(C(=O)C4CCCC4)C[C@@H]23)cc1,0,-2
C[C@@H]1CN([C@@H](C)CO)C(=O)c2cc(NS(=O)(=O)c3ccccc3)ccc2O[C@@H]1CN(C)Cc1ccccc1,-10,-5
O=C(NC[C@@H]1CC[C@H]2[C@H](CN2C(=O)Cc2ccncc2)O1)C1CCOCC1,7,16
CC(C)NC(=O)Nc1ccc2c(c1)C(=O)N([C@@H](C)CO)C[C@H](C)[C@@H](CN(C)S(C)(=O)=O)OCCCC[C@H](C)O2,24,17
O=C(c1ccccc1)N1CC(=O)N2[C@H](CO)[C@H](c3ccc(C#CC4CC4)cc3)[C@H]2C1,-16,-35

# Single records (already shown). Values in the order: Vaccinia inh	Vaccinia inh Venus
# CS(=O)(=O)Nc1ccc2c(c1)[C@@H]1C[C@@H](CC(=O)N3CCc4ccccc4C3)O[C@H](CO)[C@@H]1O2 is listed as 4	4
# CO[C@@H]1CN(C)C(=O)c2ccc(NC(=O)C3CCCC3)cc2OC[C@@H](C)N(S(=O)(=O)c2ccc(Cl)cc2)C[C@H]1C is listed as -33	-25
# O=C(NC[C@@H]1CC[C@H]2[C@H](CN2C(=O)Cc2ccncc2)O1)C1CCOCC1 is listed as 7	16
# CO[C@H]1CN(C)C(=O)c2cc(NC(C)=O)ccc2OC[C@@H](C)N(C(=O)c2ccc(F)cc2)C[C@H]1C is listed as 11	6
# C[C@@H]1CN([C@H](C)CO)C(=O)c2cccc(NC(=O)c3ccc(-c4nccs4)cc3)c2O[C@@H]1CN(C)Cc1ccncc1 is listed as 7	3
